# SARS PLpro yeast = blocks SARS-CoV papain-like protease in a yeast assay. hit rate 0.19% among 330,000. AID 485353. Potency, µM (doses to about 32.9 µM), for inactives: at the highest dose activity, positive = growth rescue. S. cerevisiae expressing SARS-CoV PLpro, growth rescue; control for the full effect not named in the record; also: 0% is about no effect; nearly all actives have a fitted effect of over 55% in size; growth read by luminescence after 48 h
# Cruzain inh Det = blocks cruzain activity in presence of Triton detergent; P25779; purified cruzain, Z-FR-AMC fluorescence, 0.01% Triton; hit rate 0.43% among 200,000; Potency, µM, for the others: max response, negative = inhibition, hits mostly inhibitors; active = well fitted curve in the direction sought with a large enough effect; inconclusive = small, poorly fitted or top-dose-only effect, or another doubt; inactive = no such curve, though single readings can be large; an effect the other way counts as inactive or inconclusive;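 also: plate controls were neutral wells for no effect and buffer without enzyme for full effect; nearly all actives have a fitted effect of over 40% in size; top concentration of the series not given in the record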
# Target sequence (P25779 123-467 limits assumed): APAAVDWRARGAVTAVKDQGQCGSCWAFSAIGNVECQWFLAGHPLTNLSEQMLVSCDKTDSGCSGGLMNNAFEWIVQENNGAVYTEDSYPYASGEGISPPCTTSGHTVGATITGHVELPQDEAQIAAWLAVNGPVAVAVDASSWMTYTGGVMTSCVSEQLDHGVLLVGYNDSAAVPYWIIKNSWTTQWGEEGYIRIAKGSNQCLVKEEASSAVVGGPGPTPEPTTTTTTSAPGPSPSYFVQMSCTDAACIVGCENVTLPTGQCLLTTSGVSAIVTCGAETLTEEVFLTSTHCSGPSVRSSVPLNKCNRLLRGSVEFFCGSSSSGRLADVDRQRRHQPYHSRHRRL
#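 Detergent-containing run (0.01% Triton X-100) in acetate buffer pH 5.5 with 5 mM DTT: enzyme at 1.5 nM final, 15 min compound preincubation at room temperature, then 2 uM Z-FR-AMC substrate. Activity taken as 60 s fluorescence increase at 360/450 nm.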
# RE007 growth inh = less growth of the S. pombe RE007 Vpr strain. S. pombe RE007 Vpr strain, BacTiter-Glo ATP luminescence, 24 h; control for the full effect not named in the record. Potency, µM (doses to about 92.2 µM), inactives show at the highest dose activity change, negative = less growth. hit rate 0.21% among 360,000. AID 651644; active = well fitted falling curve with a large enough effect; inconclusive = small, poorly fitted or top-dose-only effect; inactive = no such curve, though single readings can be large or run the other way;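 also: % is scaled to controls: 0 for no effect and ±100 for the full control effect; nearly all actives have a fitted effect of over 50% in size; the assay follows cell death caused by Vpr and the record does not say whether a fall means rescue or toxicity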
#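 Fission yeast strain RE007, carrying one chromosomally integrated HIV-1 vpr copy, was seeded at OD 0.01 in PMG+AL medium with 23 nL pinned compound. After 24 h at 30 °C and 99% humidity, viability was read by BacTiter-Glo luminescence.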
# 2A StopGo = lowers the luciferase signal of an FMDV 2A StopGo reporter; human cells with a luciferase reporter of 2A StopGo recoding; control for the full effect not named in the record; Potency, µM (series often up to 57.9 µM), for inactives: top-dose signal change, negative = less light; hit rate 1.2% among 410,000; AID 1159524; active = well fitted falling curve with a large enough effect; inconclusive = small, poorly fitted or top-dose-only effect; inactive = no such curve, though single readings can be large or run the other way; tested in HEK293T cells; also: % is scaled to controls: 0 for no effect and ±100 for the full control effect; nearly all actives have a fitted effect of over 45% in size; luciferase light after 4 h
# MARV entry inh = blocks Marburg virus binding to or entry into cells. AID 540276. hit rate 1.8% among 300,000. Potency, µM (doses to about 37.8 µM), for the others: top-dose activity change, negative = inhibition, usual class: inhibitors. Marburg virus pseudotyped entry inhibition, cell reporter; control for the full effect not named in the record; about a third of the inactives were read at about 46 µM; active = well fitted inhibition curve with a large enough effect; inconclusive = small, poorly fitted or top-dose-only effect, or effect the other way; inactive = flat fitted curve, though single readings scatter; tested in HEK293 cells; about a fifth of its hits are not listed in these tables; also: % is scaled to controls: 0 for no effect and ±100 for the full control effect; luciferase read-out
# Cruzain inh noDet = blocks cruzain activity in detergent-free assay; P25779; purified cruzain, Z-FR-AMC fluorescence, no detergent; Potency, µM, for inactives: max response, negative = inhibition, actives largely listed as inhibitors; hit rate 2.3% among 200,000; AID 1476; active = well fitted curve in the direction sought with a large enough effect; inconclusive = small, poorly fitted or top-dose-only effect, or another doubt; inactive = no such curve, though single readings can be large; an effect the other way counts as inactive or inconclusive;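 also: plate controls were enzyme without inhibitor for no effect and buffer without enzyme for full effect; nearly all actives have a fitted effect of over 40% in size; top concentration of the series not given in the record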
#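 Detergent-free condition (0.00005% Triton X-100) in acetate buffer pH 5.5 with DTT. 1.5 nM enzyme and compound were pre-mixed 15 min, then 2 uM Z-FR-AMC substrate added; reaction progress from fluorescence change between first and third reads (60 s).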
# NS1 inh = inhibitors of influenza NS1 protein function. S. cerevisiae slowed by influenza A NS1, growth recovery by OD600. Potency, µM (doses to about 46.1 µM), inactives show at the highest dose activity, positive = more growth. hit rate 0.4% among 270,000. AID 2326; also: actives are rising curves; nearly all actives have a fitted effect of over 50% in size
#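 In this qHTS, NS1 from influenza A is expressed in budding yeast, where it slows growth. Cells are switched from glucose to 2% galactose medium (pH 6.0, -URA), treated with compound, and growth recovery is read at OD600.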
# Lassa entry inh = Lassa virus entry inhibition; hit rate 1.2% among 300,000; Potency, µM (titrated, usually from 37.9 µM), without a hit: at the highest dose activity change, negative = inhibition, usual class: inhibitors; Lassa virus pseudotype entry inhibition, cell reporter; control for the full effect not named in the record; active means well fitted inhibition curve with a large enough effect; inconclusive means small, poorly fitted or top-dose-only effect, or effect the other way; inactive means flat fitted curve, though single readings scatter; tested in HEK293 cells; also: % is scaled to controls: 0 for no effect and ±100 for the full control effect; nearly all actives have a fitted effect of over 50% in size; luciferase read-out
# Numbers without * were called inactive; u = inconclusive; x = not tested or not shown; & = joins results of further samples; [ ] = dose if it differs, or a comment. Unless noted, calls follow the shape of the dose curve; as a rule, active means well fitted rising curve with a large enough effect; inconclusive means small, poorly fitted or top-dose-only effect; inactive means no such curve, though single readings can be large or run the other way. Potency is read from the fitted curve at half-maximal effect. Compounds as they come; 4.7% or so of the library scored in one or more.
SMILES,SARS PLpro yeast,Cruzain inh Det,RE007 growth inh,2A StopGo,MARV entry inh,Cruzain inh noDet,NS1 inh,Lassa entry inh
Cc1cccc2sc(NC(=O)CCNC(=O)c3ccco3)nc12,-2%,x,-15%,-5%,2%[46.1 µM],x,x,2%
CCOc1ccc(N(CC(=O)Nc2ccc(F)c(F)c2)S(=O)(=O)c2c(C)noc2C)cc1,u,-5.5%,-3%,-20%,-6%&-6%,-20%,-8%,6%
COc1cc(/C=C/C(=O)N2CCN(CC(O)COc3ccccc3)CC2)cc(OC)c1OC (stereo unspecified),5%,-0.6%,2%,u,-5%,-15%,-7%,-21%
CCOC(=O)c1cc2c(=O)n3ccccc3nc2n(CC2CCCO2)c1=NC(=O)c1cc(C)cc(C)c1 (stereo unspecified),x,-1.7%,x,u,u,-5%,x,u
CN1CCN(c2ccc(Cl)cc2NC(=O)c2nn(-c3ccccc3)c(=O)c3ccccc23)CC1,-6%,-1.4%,-6%,u,10%,-9%,-2%,u
Cc1cccc(N=Nc2ccc(N(C)C)cc2)c1,0%,x,-16%,u,u,x,-8%,u
CC1(C)CC(=O)C(C=NCC2CCN(C(=O)Cc3ccccc3)CC2)=C(O)C1,-1%,x,-4%,4%,6%[46.1 µM],x,x,8%
COc1ccc(CC(=O)Nc2cc(=O)n(C)c(=O)n2C)cc1OC,-3%,x,-15%,6%,-8%,x,x,5%
CC1CCCN(S(=O)(=O)c2ccc(C(=O)Nc3nnc(C4CC4)o3)cc2)C1 (stereo unspecified),19%,x,12%,-7%,u,x,-80%,u
CCOC(=O)C1C(=O)NC(c2ccccc2)=NC1c1cccc(Br)c1 (stereo unspecified),-3%,x,1%,44%[activator],9%[46.1 µM],x,x,-26%[46.1 µM]
Cc1cccc(Oc2ccc(Cl)cc2N)c1,-3%,x,-1%,1%,u,x,x,22%[46.1 µM]
Fc1ccccc1C(c1nnnn1C1CCCC1)N1CCN(Cc2ccccc2)CC1 (stereo unspecified),-5%,-0.9%,16%,-14%,u,5%,1%,-1%
CCCOC(=O)c1cccc(NC(=O)C(C)(C)C)c1,-21%,3.2%,-5%,34%[activator],30%,-1%,-47%,u
Cc1cccc(CN2C(=O)c3ccccc3Sc3ccc(C(=O)O)cc32)c1,-4%,x,5%,-19%,x,x,11%,x
N#CC(CC(=O)c1ccc(F)cc1)c1ccc2c(c1)OCO2 (stereo unspecified),0%,x,6%,14%,u,x,2%,0%
CCCCCCn1cc(C(=O)OCC)c(=O)c2cc(F)c(F)cc21,0%,x,-10%,-19%,-18%,x,-3%,1%
N#C/C(=C\c1ccc(C(=O)O)cc1)c1nc2sc3c(c2c(=O)[nH]1)CCCC3,-1%,x,6%,-16%,x,x,15%,x
N/C(=N\OC(=O)c1ccc(Cl)c(Cl)c1)c1cccc(CSc2ccccn2)c1,1%,x,-6%,65%[activator],u,x,3%,23%
Cc1ccc(S(=O)(=O)N2CCc3ccccc3C2CC(=O)O)cc1 (stereo unspecified),-1%,x,11%,-13%,x,x,-5%,x
CCCC(=O)N1CC(=O)Nc2ccc(Br)cc2C1c1ccc(F)cc1 (stereo unspecified),-1%,x,-3%,-16%,11µM*,x,u,-5%[46.1 µM]
CC(C)n1c(NCc2ccc(Cl)cc2)nc2ccccc21,1%,x,-20%,-22%,u,x,-30%,-12%[46.1 µM]
Cn1nnnc1SCC(=O)N(C1CCCCC1)C1CCS(=O)(=O)C1 (stereo unspecified),1%,x,6%,0%,2%[46.1 µM],x,x,0%
COc1ccc(NC(=O)CCNS(=O)(=O)c2ccc(NC(C)=O)cc2)cc1Cl,-1%,x,6%,18%,28%[46.1 µM],x,3%,3%[46.1 µM]
CCOc1ccc(NC(=O)CSc2nc3ccsc3c(=O)n2CCCCCC(=O)O)cc1,x,0.9%,4%,-1%&-9%,x,-13%,x,-24%[46.1 µM]
COc1ccc2[nH]c3c(c2c1)CCNC3,7%,5.0%,3%,-13%,u,12%,18µM*,10%
CC(C)COc1ccc(C(=O)N2C(=O)c3ccc(N)cc3C2=O)cc1,0%,x,-5%,-8%,-13%,x,-2%,7%
COc1ccc(C(=O)OCC(=O)NC2CC2)cc1F,-3%,x,12%,-1%,u,x,x,-14%[46.1 µM]
O=C(O)/C=C/c1cccc(NS(=O)(=O)c2ccccc2)c1,10%,-1.4%,4%,16%,2%,1%,5%,34%
COc1cc(C)ccc1OCCCCN1CC(C)OC(C)C1 (stereo unspecified),-8%,1.8%,3%,5%,u,-1%,-2%,2%
CCN(C1CCCCC1)S(=O)(=O)c1c(C)n(C)c(=O)n(C)c1=O,-4%,x,3%,-15%,-6%,x,x,2%
NC(=O)CC(NC(=O)c1ccccc1)c1ccc(N2CCC(Br)CC2)c([N+](=O)[O-])c1 (stereo unspecified),1%,x,1%,u,x,x,4%,x
CC1CCC(NC(=O)C(NS(=O)(=O)c2cccc3nsnc23)C(C)C)CC1 (stereo unspecified),4%,x,-5%,13%,x,x,-6%,x
N#Cc1cnc(NN)nc1,2%,x,-9%,0%,-3%,x,x,15%
C[C@]12CC[C@@H](O)C[C@@H]1CC[C@@H]1[C@@H]2CC[C@]2(C)[C@@H](O)CC[C@@H]12,1%,3.1%,0%,-28%,7%,2%,-1%,11%
CCOc1cc2[nH]c(=O)n(Cc3ccc(C(=O)N4CCN(c5cccc(Cl)c5)CC4)cc3)c(=O)c2cc1OCC,x,0.9%,x,-12%,x,-9%,x,u
COC(=O)c1ccc(-c2nc(-c3ccc(OC)c(OC)c3)no2)cc1,x,2.2%,x,12%,1%[46.1 µM],-8%,x,15%[46.1 µM]
Cc1cccc(-c2noc(CNC(=O)Nc3ccc(F)cc3)n2)c1,-1%,x,11%,-19%,-7%,x,0%,-12%
CCN(CC)c1ccc(C(=O)n2cnc3ccccc32)cc1,-2%,-10%,25%,-11%,u,-4%,-15%,u
COc1ccc(CNCC(C)NCc2ccc(OC)c(OC)c2)cc1OC (stereo unspecified),1%,x,-3%,-14%,-19%[46.1 µM],x,4%,5%[46.1 µM]
Cc1ccc(NC(=O)CN(CCc2ccccc2)S(C)(=O)=O)cc1,0%,x,-8%,15%,-2%,x,-25%,-14%
Oc1cccc(/C=N/Nc2ccc(Cl)nn2)c1,-2%,x,18%,28%,x,x,-38%,x
CCCn1c(N)c(N(CCOC)C(=O)c2cc(-c3ccco3)nc3ccccc23)c(=O)[nH]c1=O,4%,x,4%,-23%,x,x,5%,x
COc1ccc(C(OC(=O)c2ccco2)C(=O)NCc2ccco2)cc1 (stereo unspecified),9%,-3.9%,1%,0%,2%,2%,-7%,0%
CCOC(=O)C1CCN(C(=O)C2CCCN(S(=O)(=O)c3ccc(OCC)c(Cl)c3)C2)CC1 (stereo unspecified),-11%,x,-1%,u,-49%,x,x,u
CCC(=O)Nc1ccc(C)cc1-c1nc2ccccc2n(Cc2ccccc2)c1=O,x,-4.4%,x,-23%,-2%[46.1 µM],9%,x,-1%[46.1 µM]
O=S(=O)(NCc1nc(-c2ccccc2)no1)c1ccc(F)cc1,-4%,x,-13%,33%[activator],3%[46.1 µM],x,-29%,20%[46.1 µM]
COc1ccc(CN2C(=O)c3ccccc3C2C(=O)NCc2cccnc2)c(OC)c1 (stereo unspecified),0%,3.2%,-8%,-7%,7%,5%,-5%,18%
O=C(NCCc1ccccc1Cl)c1sc2ncccc2c1-n1cccc1,x,-11%,x,-12%,x,4%,x,4%[46.1 µM]
NC(=O)NC(=O)C[n+]1cccc(/C=N/O)c1,2%,x,3%,-14%,0%[46.1 µM],x,x,-15%
Cc1nc2ccccc2c(N)c1C(=O)/C=C/c1ccccc1,2%,x,-1%,18µM*,u,x,-9%,10µM*
COc1ccc(CCNC(=O)C2CCN(S(=O)(=O)N3CCC4(CC3)OCCO4)CC2)cc1OC,-16%,1.8%,21%,-20%,-1%&10%,-4%,-1%,7%&6%
Cc1ccccc1C(=O)NNC(=S)NC(=O)c1cccs1,-10%,x,-7%,2%,x,x,-115%,x
Cc1cc(O)c2c(c1)C(O)(C1OC(CO)C(O)C(O)C1O)c1cccc(O)c1C2=O (stereo unspecified),-17%,0.4%,-1%,-15%,7%,-4%,-4%,-3%
Cc1ccc2nc3c(nc2c1C)C(O)=C3O,0%,x,4%,-27%,u,x,3%,0%
Cc1ccccc1C(=O)NC(=S)NC1CCSC1=O (stereo unspecified),-20%,0.3%,-9%,-17%,-30%,-13%,13%,13%
S=C1NCN(Cc2ccco2)CN1CCc1ccccc1,2%,x,9%,15%,x,x,-1%,x
CC1CCN(c2nc3c(S(=O)(=O)c4ccccc4)nnn3c3ccc(Cl)cc23)CC1,x,-5.3%,x,-16%,-10%[46.1 µM],-12%,x,x
COC(=O)C1=NNC2(c3ccc(Cl)cc3)C(=O)N(c3ccc(Cl)cc3)C(=O)C12 (stereo unspecified),5%,-5.8%,5%,-24%,7%,-4%,9%,11%
CC1(c2ccc([N+](=O)[O-])cc2)Nc2ccccc2S1 (stereo unspecified),-9%,x,40µM*,18%,18%[46.1 µM],x,4%,-3%[46.1 µM]
O=C(OCc1ccc(Cl)c(Cl)c1)c1cccnc1Cl,-4%,x,18%,-3%,9%[46.1 µM],x,-40%,7%
COc1ccc(-c2nc(C(=O)Nc3ccc(C(C)=O)cc3)nn2-c2cccc(Cl)c2)cc1,x,-8.7%,x,-18%,-7%[46.1 µM],22%,x,-10%[46.1 µM]
Cc1occc1-c1nc(-c2ccccn2)no1,-6%,-0.5%,u,-40%,11µM*,4%,-10%,u

# Screening data: PubChem, National Center for Advancing Translational Sciences (NCATS)
